Screening results from PubChem.
Cruzain Triton: cruzain (T. cruzi) inhibition with detergent; P25779; purified cruzain, Z-FR-AMC fluorescence, 0.01% Triton; Potency, µM, inactives show max response, negative = inhibition, hits mostly inhibitors; 0.43% of 200,000 active; AID 1478; active means well fitted curve in the direction sought with a large enough effect; inconclusive means small, poorly fitted or top-dose-only effect, or another doubt; inactive means no such curve, though single readings can be large; an effect the other way counts as inactive or inconclusive;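 further: plate controls were neutral wells for no effect and buffer without enzyme for full effect; nearly all actives have a fitted effect of over 40% in size; top concentration of the series not given in the record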
Target sequence (P25779 123-467 limits assumed): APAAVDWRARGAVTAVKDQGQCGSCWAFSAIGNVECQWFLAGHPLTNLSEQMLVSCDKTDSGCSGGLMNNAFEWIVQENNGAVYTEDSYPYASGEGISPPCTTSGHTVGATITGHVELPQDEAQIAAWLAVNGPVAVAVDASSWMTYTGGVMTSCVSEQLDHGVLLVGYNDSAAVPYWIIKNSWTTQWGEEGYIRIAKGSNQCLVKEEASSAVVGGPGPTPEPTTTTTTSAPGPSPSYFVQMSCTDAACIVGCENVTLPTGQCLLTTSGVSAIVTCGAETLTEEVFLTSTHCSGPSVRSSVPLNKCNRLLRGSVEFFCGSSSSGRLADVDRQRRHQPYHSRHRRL
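Cruzain (1.5 nM) preincubated 15 min at RT with compound in 100 mM sodium acetate pH 5.5, 5 mM DTT, 0.01% Triton X-100. Reaction started with 2 uM Z-FR-AMC; AMC fluorescence (ex 360/em 450 nm) change over 60 s gave rate.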
StopGo reporter: lowers the luciferase signal of an FMDV 2A StopGo reporter. 1.2% of 410,000 active. human cells with a luciferase reporter of 2A StopGo recoding; control for the full effect not named in the record. Potency, µM (titrated, usually from 57.9 µM), inactives show top-dose signal change, negative = less light. AID 1159524; active = well fitted falling curve with a large enough effect; inconclusive = small, poorly fitted or top-dose-only effect; inactive = no such curve, though single readings can be large or run the other way; tested in HEK293T cells; further: on the % scale 0 is the no-effect control and ±100 the full control effect; nearly all actives have a fitted effect of over 45% in size; luciferase light after 4 h
NS1 inh: influenza NS1 inhibition | AID 2326 | Potency, µM (top dose mostly 46.1 µM), for inactives: top-dose activity, positive = more growth | 0.4% of 270,000 active | S. cerevisiae slowed by influenza A NS1, growth recovery by OD600; further: actives are rising curves; nearly all actives have a fitted effect of over 50% in size
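OD600 was taken as the measure of yeast growth restored by compound in an NS1-expressing S. cerevisiae strain. Cells had been washed out of glucose medium and diluted 1:100 into galactose -URA medium, pH 6.0.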
SARS PLpro yeast: blocks SARS-CoV papain-like protease in a yeast assay; S. cerevisiae expressing SARS-CoV PLpro, growth rescue; control for the full effect not named in the record; 0.19% of 330,000 active; AID 485353; Potency, µM (series often up to 32.9 µM), for inactives: at the highest dose activity, positive = growth rescue; further: 0% is about no effect; nearly all actives have a fitted effect of over 55% in size; growth read by luminescence after 48 h
LASV entry inh: Lassa virus entry inhibition; Lassa virus pseudotype entry inhibition, cell reporter; control for the full effect not named in the record; Potency, µM (series often up to 37.9 µM), for inactives: at the top dose activity change, negative = inhibition, usual class: inhibitors; 1.2% of 300,000 active; active means well fitted inhibition curve with a large enough effect; inconclusive means small, poorly fitted or top-dose-only effect, or effect the other way; inactive means flat fitted curve, though single readings scatter; tested in HEK293 cells; further: on the % scale 0 is the no-effect control and ±100 the full control effect; nearly all actives have a fitted effect of over 50% in size; luciferase read-out
Marburg entry inh: inhibitors of Marburg virus binding or cell entry; 1.8% of 300,000 active; Potency, µM (doses to about 37.8 µM), for the others: at the top dose activity change, negative = inhibition, usual class: inhibitors; Marburg virus pseudotyped entry inhibition, cell reporter; control for the full effect not named in the record; about a third of the inactives were read at about 46 µM; AID 540276; active = well fitted inhibition curve with a large enough effect; inconclusive = small, poorly fitted or top-dose-only effect, or effect the other way; inactive = flat fitted curve, though single readings scatter; tested in HEK293 cells; about a fifth of its hits are not listed in these tables; further: on the % scale 0 is the no-effect control and ±100 the full control effect; luciferase read-out
Cruzain inh noDet: blocks cruzain activity in detergent-free assay | purified cruzain, Z-FR-AMC fluorescence, no detergent | Potency, µM, without a hit: max response, negative = inhibition, most hits filed as inhibitors | 2.3% of 200,000 active | AID 1476; active means well fitted curve in the direction sought with a large enough effect; inconclusive means small, poorly fitted or top-dose-only effect, or another doubt; inactive means no such curve, though single readings can be large; an effect the other way counts as inactive or inconclusive;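 further: plate controls were enzyme without inhibitor for no effect and buffer without enzyme for full effect; nearly all actives have a fitted effect of over 40% in size; top concentration of the series not given in the record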
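Purified cruzain at 1.5 nM, pre-incubated 15 min with compound at room temperature in 100 mM sodium acetate pH 5.5, 5 mM DTT, 0.00005% Triton X-100. Reaction started with 2 uM Z-FR-AMC; AMC fluorescence increase over 60 s gives rate.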
RE007 growth inh: less growth of the S. pombe RE007 Vpr strain | Potency, µM (series often up to 92.2 µM), inactives show at the top dose activity change, negative = less growth | S. pombe RE007 Vpr strain, BacTiter-Glo ATP luminescence, 24 h; control for the full effect not named in the record | 0.21% of 360,000 active; active = well fitted falling curve with a large enough effect; inconclusive = small, poorly fitted or top-dose-only effect; inactive = no such curve, though single readings can be large or run the other way;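 further: on the % scale 0 is the no-effect control and ±100 the full control effect; nearly all actives have a fitted effect of over 50% in size; the assay follows cell death caused by Vpr and the record does not say whether a fall means rescue or toxicity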
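Fission yeast strain RE007, carrying one chromosomally integrated HIV-1 vpr copy, was seeded at OD 0.01 in PMG+AL medium with 23 nL pinned compound. After 24 h at 30 °C and 99% humidity, viability was read by BacTiter-Glo luminescence.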
Numbers without * were called inactive; ? = inconclusive; nt = not tested or not shown; [ ] = dose if it differs, or a comment. Unless noted, the call rests on the fitted dose curve; in most records, active means well fitted rising curve with a large enough effect; inconclusive means small, poorly fitted or top-dose-only effect; inactive means no such curve, though single readings can be large or run the other way. Potency means the concentration at half of the fitted maximal effect.

SMILES	Cruzain Triton	StopGo reporter	NS1 inh	SARS PLpro yeast	LASV entry inh	Marburg entry inh	Cruzain inh noDet	RE007 growth inh
CCCCOc1ccc(C2(C)NC(=O)NC2=O)cc1 (configuration not stated)	nt	-6%	13%	-9%	27%[46.1 µM]	1%[46.1 µM]	nt	-4%
O=C(NCCc1ccc(Cl)cc1)c1ccc2c(c1)N(Cc1ccccc1F)C(=O)c1ccccc1S2(=O)=O	0.7%	0%	nt	nt	-6%[46.1 µM]	?	?	nt
CC1(C)CC(=O)C2=C(C1)N(Cc1ccco1)C(=O)C2(NC(=O)c1ccc(Cl)cc1Cl)C(F)(F)F (configuration not stated)	1.6%	-8%	28%	?	2%	-13%	3%	-5%
Cc1cc(/C=C(\C#N)c2nc3ccccc3[nH]2)c(C)n1C	-4.2%	2%	17%	-12%	10µM*	?	?	-17%
COc1ccc(-n2c(/C=C/c3c(C)[nH]c4ccccc34)nc3ccccc3c2=O)cc1	-1.4%	-18%	nt	nt	14%[46.1 µM]	nt	-8%	nt
COc1ccc(OC)c(NC(=O)c2cc(S(=O)(=O)N3CCCCC3)c[nH]2)c1	nt	-27%	10%	6%	nt	nt	nt	11%
CCOC(=O)CCNc1n[nH]c(=O)[nH]c1=O	1.2%	0%	9%	4%	6%	-20%	-4%	-6%
Cc1cc(C)nc(/N=c2/ssnc2Cl)c1	-5.1%	28µM*	-225%	-18%	6%	-21%	-7%	-3%
O=C(OCC(=O)N1CCOCC1)c1ccc2ccccc2c1O	nt	16%	nt	2%	-7%	?	nt	?
O=C(NCc1ccccc1)c1c[nH]c2ccc(F)cc2c1=O	nt	49%[activator]	14%	-1%	nt	nt	nt	2%
CCOc1ccc(NC(=O)CSc2oc(-c3ccc(F)cc3)nc2S(=O)(=O)c2ccc(C)cc2)cc1	0.8%	-15%	nt	nt	-17%[46.1 µM]	-6%[46.1 µM]	2%	nt
COc1cccc(NC(=O)c2cn(C)c(=O)c3cc(OC)c(OC)cc23)c1	0.1%	-19%	-9%	4%	-3%	?	?	-1%
Cc1cccn2c(CN3CCCN(C=O)CC3)c(C(=O)N(C)CCc3ccccc3)nc12	nt	-8%	1%	-5%	6%	18%	nt	0%
O=C(c1cc2cc(Br)ccc2oc1=O)N1CCCC1	0.7%	1%	3%	3%	-7%	0%	-2%	-17%
CC1Cc2ccccc2N1C(=O)C1CC(=O)N(c2ccccc2)C1 (configuration not stated)	nt	-2%	-19%	0%	-7%[46.1 µM]	-6%[46.1 µM]	nt	-9%
CCCNC(=O)c1ccc2c(c1)CCN2S(C)(=O)=O	nt	-7%	7%	0%	?	-22%[14.2 µM]	nt	5%
Cc1ccc(CNC(=O)C2CC3Cn4c(nc5cc6ccccc6cc54)C3N2C)o1 (configuration not stated)	nt	-16%	0%	3%	nt	nt	nt	-16%
COC(=O)Cn1c(SCCOc2ccccc2Cl)nc2ccccc21	-5.3%	21%	nt	nt	-31%[46.1 µM]	-3%[46.1 µM]	-9%	nt
COc1ccc(Cl)cc1NC(=O)Cc1ccc(NC(=O)N2CCCCc3ccccc32)cc1	-2.5%	-15%	nt	nt	-4%[46.1 µM]	nt	1%	nt
COc1ccc(NC(=O)Cn2c(=O)n(CCCC(=O)NCc3ccccc3Cl)c(=O)c3ccccc32)c(OC)c1	-2.8%	-4%	nt	nt	-1%[46.1 µM]	17%[46.1 µM]	-10%	nt

Ten entries from above, arranged by molar mass, descending.
SMILES	Cruzain Triton	StopGo reporter	NS1 inh	SARS PLpro yeast	LASV entry inh	Marburg entry inh	Cruzain inh noDet	RE007 growth inh
COc1ccc(NC(=O)Cn2c(=O)n(CCCC(=O)NCc3ccccc3Cl)c(=O)c3ccccc32)c(OC)c1	-2.8%	-4%	nt	nt	-1%[46.1 µM]	17%[46.1 µM]	-10%	nt
O=C(NCCc1ccc(Cl)cc1)c1ccc2c(c1)N(Cc1ccccc1F)C(=O)c1ccccc1S2(=O)=O	0.7%	0%	nt	nt	-6%[46.1 µM]	?	?	nt
CCOc1ccc(NC(=O)CSc2oc(-c3ccc(F)cc3)nc2S(=O)(=O)c2ccc(C)cc2)cc1	0.8%	-15%	nt	nt	-17%[46.1 µM]	-6%[46.1 µM]	2%	nt
CC1(C)CC(=O)C2=C(C1)N(Cc1ccco1)C(=O)C2(NC(=O)c1ccc(Cl)cc1Cl)C(F)(F)F (configuration not stated)	1.6%	-8%	28%	?	2%	-13%	3%	-5%
COc1ccc(-n2c(/C=C/c3c(C)[nH]c4ccccc34)nc3ccccc3c2=O)cc1	-1.4%	-18%	nt	nt	14%[46.1 µM]	nt	-8%	nt
COC(=O)Cn1c(SCCOc2ccccc2Cl)nc2ccccc21	-5.3%	21%	nt	nt	-31%[46.1 µM]	-3%[46.1 µM]	-9%	nt
O=C(OCC(=O)N1CCOCC1)c1ccc2ccccc2c1O	nt	16%	nt	2%	-7%	?	nt	?
CCCNC(=O)c1ccc2c(c1)CCN2S(C)(=O)=O	nt	-7%	7%	0%	?	-22%[14.2 µM]	nt	5%
Cc1cc(/C=C(\C#N)c2nc3ccccc3[nH]2)c(C)n1C	-4.2%	2%	17%	-12%	10µM*	?	?	-17%
CCCCOc1ccc(C2(C)NC(=O)NC2=O)cc1 (configuration not stated)	nt	-6%	13%	-9%	27%[46.1 µM]	1%[46.1 µM]	nt	-4%

Going on with the list:
SMILES	Cruzain Triton	StopGo reporter	NS1 inh	SARS PLpro yeast	LASV entry inh	Marburg entry inh	Cruzain inh noDet	RE007 growth inh
Cc1cc(C)n(-c2nc3c(c(=O)[nH]c(=O)n3C)n2C(C)C)n1	5.4%	-14%	2%	4%	5%	0%	1%	-8%
Cc1cc(C)cc(-n2cc(C(=O)O)c(=O)cc2C)c1	nt	-15%	nt	1%	10%[46.1 µM]	?	nt	15%
COc1ccc2c3c(cccc13)OCC2=O	-4.0%	-3%	-6%	-5%	1%	1%	-1%	?
CCN(Cc1ccccc1)C(=O)c1c(C)oc2ncn(C)c(=O)c12	-1.0%	9%	nt	nt	?	nt	-2%	nt
CCOC(=O)C1=C(C)N=c2s/c(=C\c3ccc(OCC(=O)O)cc3)c(=O)n2C1c1ccccc1OC (configuration not stated)	nt	0%	6%	2%	nt	nt	nt	1%
Cc1ccc2c(c1)nnn2C1CCN(C(=O)C23CC4CC(CC(C4)C2)C3)CC1	-2.1%	?	5%	29%	-6%	3%	7%	11%
CCCC(=O)Nc1nc(C)c(-c2csc(Nc3ccccc3OC)n2)s1	-2.0%	-16%	10%	?	nt	nt	-23%	20%
Clc1ccc(Nc2c3c(nc4ncnn24)CCC3)cc1	nt	-30%	2%	-3%	nt	nt	nt	-2%
COc1cc(OC)c(NC(=O)c2nn(-c3ccc(C)cc3)c(=O)c3c2c2ccccc2n3C)cc1Cl	0.3%	-3%	nt	nt	8%[46.1 µM]	5%[46.1 µM]	7%	nt
Cc1nn(C(=O)c2c([N+](=O)[O-])cnn2C)c(C)c1Cl	-1.5%	14%	-4%	5%	-4%	-10%	1%	2%
N/C(=N\S(=O)(=O)c1cccs1)c1ccccc1	1.5%	21%	0%	0%	7%	16%	1%	24%
CN(CC(=O)Nc1ccc(Cl)cc1)c1ccc(S(=O)(=O)N2CCCCC2)cc1[N+](=O)[O-]	-7.0%	?	-12%	6%	?	?	4%	-1%
CC(C)C(=O)NN(C(=O)C(C)C)c1nc2ccccc2s1	nt	3%	-1%	-1%	?	12%	nt	12%
CC(Sc1nnnn1C)C(=O)Nc1ccccc1-c1ccccc1 (configuration not stated)	-0.9%	nt	-7%	-2%	2%	-2%	10%	-3%
Cc1ccccc1N1CCN(C(=S)c2ccc([N+](=O)[O-])cc2)CC1	-5.5%	?	0%	0%	-17%	-10%	-18%	-19%
O=C(CNS(=O)(=O)c1ccccc1)N1CCN(C(=O)c2ccco2)CC1	nt	1%	nt	nt	5%	25%	nt	2%
COCCCNS(=O)(=O)c1cccc(S(=O)(=O)c2cccc(S(=O)(=O)NCCCOC)c2)c1	nt	-3%	-5%	0%	nt	nt	nt	0%
O=C(NC(=S)Nc1ccc(NC(=O)c2ccco2)cc1)c1ccccc1	1.4%	-12%	-3%	-3%	-11%	0%	3%	-21%
CCCCOc1ccc(-c2n[nH]c(=S)n2Cc2ccccc2)cc1	nt	-4%	2%	-2%	-19%[46.1 µM]	?	nt	-14%
CCOC(=O)c1cn(Cc2ccc(C)cc2)nn1	-1.4%	16%	10%	0%	?	4%	11%	25%
O=C(Nc1cccc(C(F)(F)F)c1)C1CCN(S(=O)(=O)c2cccnc2)CC1	nt	?	8%	27%	nt	nt	nt	1%
N#Cc1c(SCC(=O)N2CCOCC2)nsc1SCC(=O)N1CCOCC1	3.1%	14%	6%	3%	-1%	-13%	9%	7%
COc1cc(NC(=O)Cn2nnc(-c3ccc(C(F)(F)F)cc3)n2)c(C(=O)O)cc1OC	1.9%	23%	nt	nt	6%[46.1 µM]	nt	?	nt
Cc1cc2cc(CNC(=O)c3ccc(S(=O)(=O)N4CCCC4)cc3)ccc2n1C	2.9%	-15%	10µM*	6%	nt	nt	?	-1%
COc1ccc2c(c1)c1nc(SCC(C)C)n(CCO)c(=O)c1n2C	4.3%	-29%	-5%	1%	nt	nt	?	1%
COC(=O)c1cn(C(=O)c2ccccc2)c2ccccc12	nt	11%	-3%	-1%	nt	nt	nt	-11%
O=C(NNC(=O)c1ccncc1)Nc1cc(Cl)ccc1Cl	nt	21%	nt	nt	-7%[46.1 µM]	?	nt	4%
CCOc1ccc(N(CC(=O)NC2CCCC2)C(=O)CCC(=O)Nc2nccs2)cc1	nt	-3%	-3%	-2%	11%	?	nt	8%
COc1ccc(CNCc2ccccc2[N+](=O)[O-])cc1OC	nt	0%	9%	11%	nt	nt	nt	-3%
CC(C)COP(=O)(c1ccc(N(C)C)cc1)C(O)c1ccccc1F (configuration not stated)	3.9%	22%	6%	-3%	6%	8%	?	2%[3.69 µM]
Cc1ccc(C)c(C2=CSC3=NS(=O)(=O)CCN23)c1	5.0%	-22%	-6%	5%	3%	19%	6%	13%
